Screens from PubChem BioAssay.
PABP polyA inh = PABP-poly(A) binding inhibition; P11940; PABP-poly(A) RNA binding, fluorescence polarization; inhibition, % at 35 µM; 290,000 compounds, 1% hits;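 active = 50% or more with normal probe brightness, or confirmed in later tests; inconclusive = above 50% with abnormal brightness, or retests that disagree; inactive = below 50% or failed in later tests; about a fifth of its hits are not listed in these tables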;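 note: calls also rest on retests at 20 µM and on dose response follow-up; controls were probe without protein and protein plus probe with vehicle; some compounds called inactive have numbers as strong as hits; many hits fall short of the cut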
CSC inhib = blocks cancer stem cells. cancer stem cell-like cells viability, luminescence. 300,000 compounds, 1.1% hits. inhibition, % at 7.5 µM;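 active = mean at 75% or more and at least half the replicates too; inconclusive = mean and replicates disagree; tested in HMLE shEcad cells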;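 note: 0% = median of negative and 100% = median of positive control wells; the first replicate is given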
Yeast UUG start = modulators of start codon recognition fidelity in yeast | S. cerevisiae UUG-firefly luciferase reporter, luminescence/redox ratio | activity score, % at 18.7 µM | 350,000 compounds, 0.13% hits | AID 602363;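 active = replicate mean at a twofold rise or more, about +100% in these data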;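 note: firefly luciferase made from a UUG start codon reports start codon fidelity; reporter light over untreated wells divided by growth signal over untreated wells; some hits fall short of that in this replicate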
Rce1 inhib = yeast Ras-converting enzyme inhibition; Q03530; yeast membranes, quenched prenylated peptide cleavage fluorescence; calls only; 290,000 compounds, 0.27% hits;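 active = fall in fluorescence gain of 50% or more versus controls, with final raw signal at or below 3038400; inconclusive = same 50% fall but final raw signal above 3038400; inactive = fall in fluorescence gain under 50%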;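 note: plate controls were neutral control wells for no effect and wells lacking membranes for full effect; tested at 10 µM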
Target sequence (Q03530 whole entry, looked up): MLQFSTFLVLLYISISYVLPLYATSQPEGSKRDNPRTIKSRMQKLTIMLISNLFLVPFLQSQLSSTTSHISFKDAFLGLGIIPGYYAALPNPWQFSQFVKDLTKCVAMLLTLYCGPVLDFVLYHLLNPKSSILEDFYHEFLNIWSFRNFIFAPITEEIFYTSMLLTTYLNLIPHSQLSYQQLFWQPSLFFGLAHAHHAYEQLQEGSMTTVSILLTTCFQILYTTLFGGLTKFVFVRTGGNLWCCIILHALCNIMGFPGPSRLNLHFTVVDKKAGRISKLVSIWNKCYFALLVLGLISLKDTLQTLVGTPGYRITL
MT1-MMP act inh = MT1-MMP (human) activation inhibition; HT1080 RFP-PRO-GFP cells, GFP/RFP ratio fluorescence, overnight; percent of plate control window, DMSO zero; GFP/RFP ratio change, % at 20 µM; 360,000 compounds, 0.061% hits; AID 651647;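 active = GFP/RFP ratio change of at least 30% with cell ATP level not reduced by more than half and red fluorescence within 50% of control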; note: strong numbers were not always called active
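Read-out: GFP/RFP fluorescence ratio; Test system: RFP-PRO-GFP reporter HT1080 cells; Compound dosing: single-point 20 µM compound, 1% DMSO; Times: overnight compound exposure at 37 °C.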
eIF4H FP inh = inhibitors of RNA binding by human eIF4H; 290,000 compounds, 0.94% hits; inhibition, % at 35 µM; eIF4H fluorescence polarization binding assay; AID 2012;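 active = 50% or more with normal probe brightness, or confirmed in later tests; inconclusive = above 50% with abnormal brightness, or retests that disagree; inactive = below 50% or failed in later tests; about a fifth of its hits are not listed in these tables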;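 note: calls also rest on retests at 20 µM and on dose response follow-up; 0% = protein and probe with vehicle and 100% = probe without protein; strong numbers were not always called active; many hits fall short of the cut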
HIV Env fusion = inhibitors of HIV Env-mediated cell fusion; HeLa-JRFL Env/CEM21 cell fusion, luciferase; inhibition, % at 12.3 µM; 360,000 compounds, 1.1% hits; AID 651610;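 active = mean replicate inhibition score of at least 50 and every replicate individually at or above 50; inconclusive = only one of the two criteria met; inactive = mean below 50 and not all replicates reaching 50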;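 note: 0% = plate neutral controls and 100% = maraviroc near 300 nM; one replicate is shown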
MT1-MMP act inh RFP = recorded beside MT1-MMP act inh, whose call it bears; RFP signal change, %; measured here: RFP expression control read;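 0 = vehicle wells; hits needed this value within 50% of zero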
* marks the source's active call; other numbers are inactive results; i = inactive; ? = inconclusive; · = not tested or not shown.

molecule,PABP polyA inh,CSC inhib,Yeast UUG start,Rce1 inhib,MT1-MMP act inh,MT1-MMP act inh RFP,eIF4H FP inh,HIV Env fusion
Cc1ccc(NS(=O)(=O)c2c(C)[nH]c(C)c2C(=O)N2CCCCC2)cc1F,2,-5,-1,i,0,-1,-4,-1
N#CCC(=O)Nc1ccc(C(=O)N2CCN(c3ccccn3)CC2)cc1,5,-2,-18,i,2,5,3,3
CNC(=S)N1CCC(n2cnc3ccccc32)CC1,3,·,·,i,3,1,7,-2
O=c1cc(-c2ccccc2Cl)oc2c([N+](=O)[O-])c(O)cc(O)c12,0,1,-15,i,-10,-21,-2,65*
Cc1nc(NC(=O)CN2CCC(O)(c3ccc(F)cc3)CC2)sc1C,-8,-13,-11,i,8,-5,-5,-7
CC1(Cc2cc(Cl)ccc2C(F)(F)F)C(=O)Nc2c(Cl)cccc21 (centres undefined),·,·,-13,·,-9,-14,·,-1
O=C(Cc1nnc(NC(=O)c2cccc([N+](=O)[O-])c2)s1)NCc1ccccc1,-11,-14,-11,i,3,2,3,0
Cc1nc2c(O)cccc2cc1CO,1,20,-11,i,3,2,5,-4
Cc1cc(=O)c(C(=O)Nc2ccc(N3CCOCC3)cc2N2CCOCC2)nn1-c1ccccc1Cl,·,-11,-5,·,2,2,·,-6
Cc1ccc(CN2CCN(CC(=O)N/N=C/c3ccccc3F)CC2)cc1,-7,2,·,i,0,1,-8,9
O=C(c1cc2ccccc2o1)N1CCN(S(=O)(=O)c2ccc(Cl)s2)CC1,·,2,-12,·,-3,-5,·,·
CC(=O)c1ccc(N2CCN(CN3C(=O)CC4(CCCC4)C3=O)CC2)c(F)c1,-4,24,-20,i,-4,1,0,13
CC(C)(C)NC(=O)C(=O)NNC(=O)c1ccccc1,-2,-10,-22,i,6,8,-1,·
CCN(CC)C(=O)c1ncn(Cc2ccccc2)c1C(=O)N(CC)CC,·,-31,-19,·,0,7,·,-14
COc1ccc(CCC(=O)NCc2cnn(C)c2)cc1,6,-3,·,i,3,1,-18,-23
Cc1ccc(OCC(=O)N2CCc3ccccc3C2)c([N+](=O)[O-])n1,-3,0,·,i,-1,-2,-7,-5
O=C(N/N=C1\CC2CC=CC12)c1ccccc1Cl (centres undefined),-7,8,-9,i,4,8,3,-5
CCCCn1c(N)c(N(CCC(C)C)C(=O)CCCc2nc3ccccc3s2)c(=O)[nH]c1=O,6,4,-6,i,-4,1,4,·
Cc1ccc(-c2cc(C(=O)N/N=C/c3c(C)nn(C)c3C)c3ccccc3n2)cc1C,-14,-1,-17,i,-3,-7,0,·
Cc1noc(NS(=O)(=O)c2ccc(NC(=O)c3cccc(S(=O)(=O)Nc4ccccc4F)c3)cc2)c1C,·,8,0,·,-6,1,·,·
COC(=O)c1ccc(/C=C/C(=O)OCC(=O)NCc2cccs2)cc1,·,-9,-19,·,-2,-3,·,-2
COCCn1c(-c2ccc(SC)cc2)nc2c1c(=O)[nH]c(=O)n2CC(C)C,3,10,-2,?,-2,-4,-10,-5
Cc1cccc(Oc2ncnc3onc(C)c23)c1C,4,0,-10,i,-2,1,-6,·
CNc1nc(SCc2ccccc2Cl)nc2c1CCCC2,-5,79*,-10,i,-4,-10,-9,·
CCN(N)C(=S)Nc1ccc(F)cc1,6,-11,-17,i,-7,-7,5,14
O=C(NCC(c1ccco1)N1CCCCC1)c1cccnc1 (centres undefined),·,-19,1,·,-5,-1,·,·
CN(C)CCCN(C(=O)COc1ccccc1)c1nc2cc3c(cc2s1)OCCO3,3,-4,4,i,2,4,-11,-1
CCOCC(=O)Nc1c(C(=O)Nc2ccc3c(c2)OCCO3)oc2ccccc12,1,-4,·,i,4,-2,-5,-65
Cc1ccc(-c2ccc(SCC(=O)N3CCc4ccccc43)nn2)cc1,-8,-11,·,i,·,·,1,·
CC1CC1C(=O)Nc1nc(-c2ccccc2)cs1 (centres undefined),-10,1,·,i,1,-6,2,·
Cc1ccc(-c2nnn3c2nc(NC(C)C)c2ccccc23)cc1,-2,7,-12,i,-1,3,-7,16
COc1ccc(S(=O)(=O)N2CCCC2C(=O)Nc2nc3c(s2)CCCC3)cc1 (centres undefined),3,-2,-2,i,0,-6,-5,·
CCN(CC(=O)NCc1ccc(Cl)cc1)C(=O)CSCC(=O)Nc1ccc(C)cc1,·,-4,-18,i,-2,-3,·,-2
O=S(=O)([N-]c1nc2ccccc2nc1-[n+]1ccc(-c2ccncc2)cc1)c1ccccc1,0,-8,·,i,-81,5,?,-147
Fc1ccc(CNc2ccn3nc(-c4ccccc4)cc3n2)cc1,·,·,-21,·,2,1,·,-63
O=c1c(Cl)c(NCc2ccc(F)cc2)cnn1C12CC3CC(CC(C3)C1)C2,5,75*,-15,i,-26,-16,-8,-8
CN(C)CCN=Cc1c(O)n(-c2ccc(S(=O)(=O)N3CCOCC3)cc2)c(=O)c2ccccc12,·,·,-4,·,2,1,·,9
CCOc1ccc2nc(NC(=O)c3cccc(N4C(=O)CCC4=O)c3)sc2c1,·,·,-11,·,4,-1,·,-22
COc1ccc(CNCc2cc(C)c(OC)cc2C)c(OC)c1,9,2,7,i,-2,-3,16,11
CC(C)[C@H]1CN(C)CCN1Cc1cn(C)nc1-c1cccc(Cl)c1,-1,-3,-3,i,0,5,-8,-11
Cc1ccc(S(=O)(=O)CC(=O)Nc2ccc(S(=O)(=O)Nc3onc(C)c3C)cc2)cc1,9,-9,-7,i,1,5,-2,·
CC(C)/C=C1\CCCCC1N(C)C(=O)NC(C)C (centres undefined),-14,-9,-3,i,3,4,3,·
CCCNC(=O)CCc1c(C)nc2nc(-c3cc(OC)cc(OC)c3)nn2c1C,-2,-1,-9,i,6,2,0,-2
CCN(CC)S(=O)(=O)c1ccc(OC)c(NC(=O)c2ccc(=O)[nH]c2)c1,-5,-14,0,i,-5,3,8,0
CC(=O)C1C(c2cccc(F)c2)NC(=O)NC1(O)C(F)(F)F (centres undefined),-7,-14,·,i,1,7,-4,20
Cc1ccc(C23CC4CC(CC(C(=O)N5CCN(C)CC5)(C4)C2)C3)cc1,-14,54,·,i,-8,-7,8,-2
CC(=O)Nc1ccc(S(=O)(=O)N2CCN(C(=O)c3ccccc3F)CC2)cc1,18,-5,-3,·,10,7,3,36
CC1CCCC(NC(=O)CCCn2ncn3c(cc4occc43)c2=O)C1C (centres undefined),4,-7,-3,i,3,2,-10,2
COC(=O)C1CSc2[nH]c(=O)sc2C1c1ccc(OC)c(OC)c1 (centres undefined),4,-7,-9,i,1,2,8,·
Cc1ccc(NC(=O)COC(=O)C2CCN(c3ccc(C(F)(F)F)cn3)CC2)cc1C,·,7,5,·,2,6,·,-3

Next part
molecule,PABP polyA inh,CSC inhib,Yeast UUG start,Rce1 inhib,MT1-MMP act inh,MT1-MMP act inh RFP,eIF4H FP inh,HIV Env fusion
NC(=O)C1CCN(C(c2ccccc2)c2nnnn2C2CCCC2)CC1 (centres undefined),4,4,1,i,-2,1,7,-42
CCc1ccc(C(=O)CCC(=O)Nc2cccc(S(=O)(=O)N3CCCCC3)c2)cc1,·,·,-8,·,-3,-10,·,-2
CCN(CC)C(=O)C1CC(=O)N(c2ccc(OC)cc2)C1c1ccc(OC)cc1 (centres undefined),10,3,-22,i,4,1,-1,13
COc1ccc(N(C)S(=O)(=O)c2ccc3c(c2)NC(=O)CC(=O)N3)c(OC)c1,3,-8,-23,i,-4,0,-13,8
Cc1c(NC(=O)c2cccc(NC(=O)c3ccco3)c2)cccc1C(=O)O,4,-6,-9,i,0,-2,-3,·
Cn1nnc2cc(C(=O)Nc3cccnc3)ccc21,0,12,-12,i,4,5,5,-110
O=C(COc1cccnc1[N+](=O)[O-])N1CCc2ccccc21,-9,-14,-9,i,3,3,-7,-5
O=C1c2ccccc2-n2c1nc1ccccc1c2=O,12,31,-9,i,4,0,-2,·
Cc1nnc(SCC(=O)NNC(=O)c2ccccc2)n1N,·,-8,-9,·,1,7,·,6
CC1CCCCC1NC(=O)C1CCC(CNS(=O)(=O)c2ccccc2)CC1 (centres undefined),-20,-14,-9,i,-4,-2,-3,6
COc1cc2c(cc1OC)C(C1C(=O)CC(C)CC1=O)N(C(=O)CCl)CC2 (centres undefined),1,0,·,i,2,6,30,3
Cc1cc(C)c2c(N)c(C(=O)Nc3ccc(F)cc3)sc2n1,2,-3,-33,i,-4,-1,-7,-101
CCOC(=O)N1CCC(NC(=O)c2cccc3c2C(=O)N(CCOC)C3)CC1,6,-2,-6,i,2,1,3,-5
C/C(=N\O)C1(C)N(O)C(C)(C)C(c2ccco2)=[N+]1[O-] (centres undefined),3,·,·,i,1,2,10,8
CC(=O)Nc1ccc(CN(C)c2c(C)nc3ccc(C(=O)NCCc4ccccn4)cn23)cc1,·,·,-15,·,2,1,·,-6
CCN1C(=O)[C@H]2[C@@H](c3ccc(-c4ccccc4)cc3)N3CCC[C@@]3(C(=O)OC)[C@H]2C1=O,·,12,-3,i,4,-3,·,-4
O=C(CSc1nc2ncc(Cl)cc2[nH]1)NC1CCS(=O)(=O)C1 (centres undefined),3,-2,-19,i,1,4,1,-10
Cc1ccc2[nH]c(=O)c(COC(=O)C3CCCCC3)cc2c1,-1,-3,-4,i,-2,2,-8,-1
CCOC(=O)C1=C(N)OC2=C(C(=O)CC(C)(C)C2)C1c1ccco1 (centres undefined),4,-4,0,i,-13,-4,0,16
CC(=O)Nc1ccc(S(=O)(=O)N2CCN(Cc3ccccn3)CC2)cc1,1,3,-14,i,4,0,-2,-4
Cc1cc(C)nc(Sc2ccc3nnnn3n2)n1,-3,4,-8,i,1,1,-1,·
CC1(C)CC(=O)C(C(=O)c2ccccc2)C(=O)C1Cl (centres undefined),-8,2,-10,i,-2,2,-5,-3
CCOC(=O)N1CCN(C(=O)c2cc3cc(Cl)ccc3[nH]2)CC1,-5,13,-14,i,0,4,1,20
O=c1nc(NCc2ccco2)sc2ncccc12,6,6,-20,i,10,3,-2,·
O=C(CSc1nnc(Cc2cc(=O)[nH]c(=O)[nH]2)n1-c1ccc(Cl)cc1)NCC1CCCO1 (centres undefined),12,·,-19,·,-6,3,11,9
Nc1nnc(SCC(=O)Nc2ccccc2N2CCOCC2)s1,4,0,7,i,-1,-2,4,-2
COc1ccc(Oc2ccc(/C=N/NC(=O)c3cccnc3)cc2[N+](=O)[O-])cc1,10,22,·,i,1,-5,-1,-20
Nn1c(SCC(=O)Nc2ccc3c(c2)OCCO3)nncc1=O,2,-16,-25,i,-2,0,11,-3
Cc1cc(C)n2nc(C(=O)OCC(=O)N(C)C3CCS(=O)(=O)C3)nc2n1 (centres undefined),·,-20,-10,·,-3,2,·,·
CCOC(=O)Cn1c(-c2cccnc2Cl)nc2cc(C)c(C)cc21,2,-1,-25,i,5,3,2,-21
Cn1c(Br)nc2c1c(=O)n(Cc1ccccc1)c(=O)n2C,-5,-3,-3,i,-3,0,0,8
